SARS PLpro yeast: inhibitors of SARS-CoV papain-like protease in yeast; S. cerevisiae expressing SARS-CoV PLpro, growth rescue; control for the full effect not named in the record; Potency, µM (series often up to 32.9 µM), for the others: at the highest dose activity, positive = growth rescue; hit rate 0.19% among 330,000; also: 0% is about no effect; nearly all actives have a fitted effect of over 55% in size; growth read by luminescence after 48 h
LASV entry inh: inhibitors of Lassa virus binding or cell entry; Lassa virus pseudotype entry inhibition, cell reporter; control for the full effect not named in the record; Potency, µM (doses to about 37.9 µM), for inactives: top-dose activity change, negative = inhibition, hits mostly inhibitors; hit rate 1.2% among 300,000; AID 540256; active means well fitted inhibition curve with a large enough effect; inconclusive means small, poorly fitted or top-dose-only effect, or effect the other way; inactive means flat fitted curve, though single readings scatter; tested in HEK293 cells; also: % is scaled to controls: 0 for no effect and ±100 for the full control effect; nearly all actives have a fitted effect of over 50% in size; luciferase read-out
StopGo reporter: lowers the luciferase signal of an FMDV 2A StopGo reporter; human cells with a luciferase reporter of 2A StopGo recoding; control for the full effect not named in the record; hit rate 1.2% among 410,000; Potency, µM (series often up to 57.9 µM), without a hit: at the highest dose signal change, negative = less light; AID 1159524; active = well fitted falling curve with a large enough effect; inconclusive = small, poorly fitted or top-dose-only effect; inactive = no such curve, though single readings can be large or run the other way; tested in HEK293T cells; also: % is scaled to controls: 0 for no effect and ±100 for the full control effect; nearly all actives have a fitted effect of over 45% in size; luciferase light after 4 h
RE007 growth inh: less growth of the S. pombe RE007 Vpr strain; hit rate 0.21% among 360,000; Potency, µM (doses to about 92.2 µM), inactives show top-dose activity change, negative = less growth; AID 651644; S. pombe RE007 Vpr strain, BacTiter-Glo ATP luminescence, 24 h; control for the full effect not named in the record; active = well fitted falling curve with a large enough effect; inconclusive = small, poorly fitted or top-dose-only effect; inactive = no such curve, though single readings can be large or run the other way;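 also: % is scaled to controls: 0 for no effect and ±100 for the full control effect; nearly all actives have a fitted effect of over 50% in size; the assay follows cell death caused by Vpr and the record does not say whether a fall means rescue or toxicity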
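Fission yeast RE007 carrying one integrated HIV-1 vpr copy, seeded at OD 0.01 in PMG+AL medium with 23 nL pinned compound. Grown 24 h at 30 degrees; viability read by BacTiter-Glo luminescence after 5 min.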
MARV entry inh: blocks Marburg virus binding to or entry into cells | AID 540276 | hit rate 1.8% among 300,000 | Marburg virus pseudotyped entry inhibition, cell reporter; control for the full effect not named in the record; about a third of the inactives were read at about 46 µM | Potency, µM (highest dose often 37.8 µM), for the others: top-dose activity change, negative = inhibition, hits mostly inhibitors; active = well fitted inhibition curve with a large enough effect; inconclusive = small, poorly fitted or top-dose-only effect, or effect the other way; inactive = flat fitted curve, though single readings scatter; tested in HEK293 cells; about a fifth of its hits are not listed in these tables; also: % is scaled to controls: 0 for no effect and ±100 for the full control effect; luciferase read-out
Cruzain inh noDet: cruzain (T. cruzi) inhibition without detergent | P25779 | purified cruzain, Z-FR-AMC fluorescence, no detergent | Potency, µM, inactives show max response, negative = inhibition, usual class: inhibitors | hit rate 2.3% among 200,000; active = well fitted curve in the direction sought with a large enough effect; inconclusive = small, poorly fitted or top-dose-only effect, or another doubt; inactive = no such curve, though single readings can be large; an effect the other way counts as inactive or inconclusive;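 also: plate controls were enzyme without inhibitor for no effect and buffer without enzyme for full effect; nearly all actives have a fitted effect of over 40% in size; top concentration of the series not given in the record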
Target sequence (P25779 123-467 limits assumed): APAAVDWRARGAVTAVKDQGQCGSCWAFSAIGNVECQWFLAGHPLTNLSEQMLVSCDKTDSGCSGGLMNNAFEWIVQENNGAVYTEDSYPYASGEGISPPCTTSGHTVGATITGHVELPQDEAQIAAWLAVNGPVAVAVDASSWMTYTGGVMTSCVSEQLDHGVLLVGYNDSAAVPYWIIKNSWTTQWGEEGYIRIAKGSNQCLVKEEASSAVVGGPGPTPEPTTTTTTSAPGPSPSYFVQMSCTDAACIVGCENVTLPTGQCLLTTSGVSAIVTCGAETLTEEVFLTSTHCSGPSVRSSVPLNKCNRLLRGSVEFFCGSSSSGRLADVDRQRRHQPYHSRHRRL
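Detergent-free condition (0.00005% Triton X-100) in acetate buffer pH 5.5 with DTT. 1.5 nM enzyme and compound were pre-mixed 15 min, then 2 uM Z-FR-AMC substrate added; reaction progress from fluorescence change between first and third reads (60 s).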
Cruzain inh Det: cruzain (T. cruzi) inhibition with detergent; Potency, µM, for inactives: max response, negative = inhibition, usual class: inhibitors; hit rate 0.43% among 200,000; purified cruzain, Z-FR-AMC fluorescence, 0.01% Triton; active = well fitted curve in the direction sought with a large enough effect; inconclusive = small, poorly fitted or top-dose-only effect, or another doubt; inactive = no such curve, though single readings can be large; an effect the other way counts as inactive or inconclusive;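 also: plate controls were neutral wells for no effect and buffer without enzyme for full effect; nearly all actives have a fitted effect of over 40% in size; top concentration of the series not given in the record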
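Enzyme 1.5 nM, Z-FR-AMC 2 uM, NaOAc 100 mM pH 5.5, DTT 5 mM, Triton X-100 0.01%; 15 min RT compound preincubation; kinetic ex360/em450, 60 s delta.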
NS1 inh: blocks influenza NS1 protein function. S. cerevisiae slowed by influenza A NS1, growth recovery by OD600. hit rate 0.4% among 270,000. Potency, µM (series often up to 46.1 µM), for inactives: top-dose activity, positive = more growth; also: actives are rising curves; nearly all actives have a fitted effect of over 50% in size
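In this qHTS, NS1 from influenza A is expressed in budding yeast, where it slows growth. Cells are switched from glucose to 2% galactose medium (pH 6.0, -URA), treated with compound, and growth recovery is read at OD600.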
Active calls of the source: *; & = joins results of further samples; [ ] = dose if it differs, or a comment. Unless noted, calls follow the shape of the dose curve; as a rule, active means well fitted rising curve with a large enough effect; inconclusive means small, poorly fitted or top-dose-only effect; inactive means no such curve, though single readings can be large or run the other way. Potency is read from the fitted curve at half-maximal effect.

O=C(CO/N=C/c1ccc(OC(F)F)cc1)NC1CCCC1 was read as SARS PLpro yeast -1%, LASV entry inh -21%[46.1 µM], StopGo reporter -17%, RE007 growth inh 9%, MARV entry inh inconclusive and NS1 inh 2%.
COc1ccc(CNC(=O)CN2C(=O)CCSc3ccc(S(=O)(=O)N4CCCC4)cc32)cc1 was read as SARS PLpro yeast -2%, LASV entry inh 22%[46.1 µM], StopGo reporter 2%, RE007 growth inh 12%, MARV entry inh inconclusive and NS1 inh -6%.
For COc1cccc(N2CCN(C(=O)CN3C(=O)COc4ccc(S(=O)(=O)N5CCC(C)CC5)cc43)CC2)c1 the results were LASV entry inh 0%[46.1 µM], StopGo reporter -23%, MARV entry inh -15%[46.1 µM], Cruzain inh noDet inconclusive and Cruzain inh Det -3.2%.
For O=C1C2C3C=CC(C3)C2C(=O)N1CN(Cc1ccccc1)CN1C(=O)C2C3C=CC(C3)C2C1=O (stereo not drawn) the results were SARS PLpro yeast 1%, LASV entry inh 0%, StopGo reporter 6%, RE007 growth inh 4%, MARV entry inh 6%&6%, Cruzain inh noDet 9%, Cruzain inh Det 4.6% and NS1 inh -11%.
For COC(=O)CSc1cnc2ccccc2n1 the results were LASV entry inh 12%, StopGo reporter -20%, RE007 growth inh 0%, MARV entry inh 21%, Cruzain inh noDet -7%, Cruzain inh Det -2.3% and NS1 inh -11%.
For Cc1nc([N+](=O)[O-])c(Sc2nc3ccccc3[nH]2)n1Cc1ccccc1 the results were SARS PLpro yeast 5%, LASV entry inh inconclusive, StopGo reporter inconclusive, RE007 growth inh -26%, MARV entry inh -3%, Cruzain inh noDet 5%, Cruzain inh Det -2.0% and NS1 inh -3%.
Screening Cc1cccnc1NC(=O)CNC(=O)c1cccs1 returned SARS PLpro yeast 0%, LASV entry inh 21%, StopGo reporter -10%, RE007 growth inh -12% and MARV entry inh 1%.
For CC(=O)Nc1ccc(NC(=O)CSc2ncnc3sc(C)c(C)c23)cc1 the results were SARS PLpro yeast -2%, StopGo reporter -8%, RE007 growth inh 12%, MARV entry inh -11%[46.1 µM] and NS1 inh 7%.
`Cc1ccc(NC(=O)c2oc3ccccc3c2NC(=O)Cc2ccccc2)cc1` gave LASV entry inh 4%[46.1 µM], StopGo reporter -11%, MARV entry inh -11%[46.1 µM], Cruzain inh noDet -24% and Cruzain inh Det -7.6%.
Cc1nn(-c2ccccc2)cc1/C=N/NC(N)=S was read as SARS PLpro yeast 2%, LASV entry inh 9%, StopGo reporter 49%[activator], RE007 growth inh 2%, MARV entry inh -8% and NS1 inh -1%.
`CCCCn1c(N)c(N(CC)C(=O)c2ccc(Cl)c([N+](=O)[O-])c2)c(=O)[nH]c1=O` gave SARS PLpro yeast 4%, StopGo reporter 3%, RE007 growth inh -9%, MARV entry inh 6%[46.1 µM] and NS1 inh 14%.
`O=S(=O)(NCCC1=CCCCC1)c1c(Cl)cccc1Cl` gave SARS PLpro yeast -17%, LASV entry inh 6%, StopGo reporter 64%[activator], RE007 growth inh 9% and MARV entry inh 8%.
`Cc1ccc(CNC(=O)c2ccc(S(=O)(=O)N3CCCCC3)cc2)cc1` gave SARS PLpro yeast 1%, LASV entry inh 4%, StopGo reporter -21%, RE007 growth inh 3% and MARV entry inh -18%.
`COc1ccc(-c2cc(C(=O)OCC(=O)N3CCCC3)c3ccccc3n2)cc1` gave SARS PLpro yeast -24%, LASV entry inh inconclusive, StopGo reporter -3%, RE007 growth inh -12%, MARV entry inh -22%, Cruzain inh noDet inconclusive, Cruzain inh Det -24% and NS1 inh -36%.
Screening NC(=O)c1cc(C(=O)c2ccccc2Cl)c[nH]1 returned SARS PLpro yeast 1%, LASV entry inh 25%, StopGo reporter -17%, RE007 growth inh 0%, MARV entry inh -4%[46.1 µM] and NS1 inh -2%.
For Cc1ccc(-c2nc(NC(=O)c3nn(C)cc3[N+](=O)[O-])sc2C)cc1 the results were SARS PLpro yeast -11%, StopGo reporter 11µM*, RE007 growth inh 5%, MARV entry inh -1%, Cruzain inh noDet inconclusive, Cruzain inh Det -0.7% and NS1 inh 0%.
Cc1ccccc1/C=C1\Sc2ccc(C(=O)N3CCN(c4ccccn4)CC3)cc2N(C)C1=O was read as SARS PLpro yeast -5%, StopGo reporter -29%, RE007 growth inh 9% and NS1 inh 5%.
Screening CC(OC(=O)c1ccccc1Oc1ccccc1)C(=O)NC1CC1 (stereo not drawn) returned SARS PLpro yeast 1%, LASV entry inh -7%, StopGo reporter -23%, RE007 growth inh 6% and MARV entry inh -23%.
CC(C)CC(=O)Nc1ccc(N2CCOCC2)cc1 was read as SARS PLpro yeast 7%, LASV entry inh 2%, StopGo reporter 14%, RE007 growth inh -3%, MARV entry inh 23%, Cruzain inh noDet 2%, Cruzain inh Det 7.1% and NS1 inh 16%.
CC1=CC=CN2CC(O)CN=C12 (stereo not drawn) was read as SARS PLpro yeast 2%, LASV entry inh 14%, StopGo reporter -23%, RE007 growth inh 10%, MARV entry inh 12%, Cruzain inh noDet 5%, Cruzain inh Det -1.7% and NS1 inh -16%.
CCOP(=O)(OCC)C(O)c1ccc(OC)c(OC)c1 (stereo not drawn) was read as SARS PLpro yeast -5%, LASV entry inh 21%, StopGo reporter -11%, RE007 growth inh 21%, MARV entry inh 8%[46.1 µM], Cruzain inh noDet 16%, Cruzain inh Det 2.4% and NS1 inh 13%.
Screening c1ccc(-c2nc(-n3nc4ccccc4n3)nc3ccccc23)cc1 returned SARS PLpro yeast 4%, LASV entry inh inconclusive, StopGo reporter -12%, RE007 growth inh -1%, MARV entry inh inconclusive, Cruzain inh noDet 3%, Cruzain inh Det -3.3% and NS1 inh 3%.
C=CCc1cc(C=O)cc(OCC)c1O was read as SARS PLpro yeast -1%, LASV entry inh 10%[46.1 µM], StopGo reporter 2%, RE007 growth inh -13%, MARV entry inh -2%[46.1 µM] and NS1 inh -2%.
`Cc1ccc(NC(=O)CSc2nc(=O)n(CCN3CCOCC3)c3c2CCC3)cc1Cl` gave LASV entry inh -12%[46.1 µM], StopGo reporter inconclusive, Cruzain inh noDet 6% and Cruzain inh Det -0.8%.
`Cc1ccc(S(=O)(=O)N/N=C/c2cn(C)nc2C)cc1` gave SARS PLpro yeast 7%, LASV entry inh 11%, StopGo reporter 33%[activator], RE007 growth inh 15%, MARV entry inh 21%, Cruzain inh noDet 2%, Cruzain inh Det 8.2% and NS1 inh -3%.
Screening CCn1c(C)nc2cc(C(=O)NNC(=S)Nc3ccc(Cl)cc3Cl)ccc21 returned SARS PLpro yeast 9%, LASV entry inh 3%, StopGo reporter 29%, MARV entry inh 13%, Cruzain inh noDet 1%, Cruzain inh Det 0.5% and NS1 inh 7%.
Screening CC(OC(=O)CCCc1c[nH]c2ccccc12)C(=O)Nc1ccc(S(N)(=O)=O)cc1 (stereo not drawn) returned SARS PLpro yeast -2%, LASV entry inh 14%, StopGo reporter -20%, RE007 growth inh 13% and MARV entry inh 3%.
CCCCc1nnc(NC(=O)C2CCCO2)s1 (stereo not drawn) was read as SARS PLpro yeast -1%, LASV entry inh 5%, StopGo reporter 68%[activator], RE007 growth inh 8%, MARV entry inh 4%, Cruzain inh noDet 3%, Cruzain inh Det 1.7% and NS1 inh -6%.
CCc1nc2sc(C(=O)O)c(N)c2c2c1CCCC2 was read as SARS PLpro yeast -1%, LASV entry inh 0%, StopGo reporter -8%, RE007 growth inh -9%, MARV entry inh -1%[46.1 µM] and NS1 inh 2%.
Cc1ccc(-n2c(C)c3c(C)nnc(C)c3c2C)cc1 was read as SARS PLpro yeast 0%, MARV entry inh -2%, Cruzain inh noDet -5%, Cruzain inh Det -5.6% and NS1 inh -3%.
`NS(=O)(=O)c1cc2c(cc1Cl)NC(Cc1ccccc1)NS2(=O)=O` (stereo not drawn) gave SARS PLpro yeast 1%, StopGo reporter -4%, RE007 growth inh 4% and NS1 inh 4%.
`CC(N)C12CC3CC(CC(C3)C1)C2` (stereo not drawn) gave SARS PLpro yeast 0%&1%, LASV entry inh inconclusive, StopGo reporter 0%&-14%, RE007 growth inh -9%&14%, MARV entry inh -10%&-10%&-10%, Cruzain inh noDet 0%, Cruzain inh Det 2.6% and NS1 inh -2%&-3%.
For CCCCCC(=O)Nc1ccc(Cl)cn1 the results were SARS PLpro yeast -2%, LASV entry inh 3%, StopGo reporter 64%[activator], RE007 growth inh -2%, MARV entry inh 5%, Cruzain inh noDet 5%, Cruzain inh Det -1.1% and NS1 inh 3%.
For CN(C)S(=O)(=O)c1ccc(NC(=O)COC(=O)Cn2[nH]c(=O)c3ccccc3c2=O)cc1 the results were SARS PLpro yeast 0%, StopGo reporter -3%, RE007 growth inh 6% and NS1 inh 2%.
CCOc1cc(NC(=S)NCCCN2CCOCC2)c(OCC)cc1NC(=O)c1ccc(OC)cc1 was read as SARS PLpro yeast 0%, LASV entry inh 14%[46.1 µM], StopGo reporter 8%, RE007 growth inh -1%, MARV entry inh inconclusive and NS1 inh -4%.
`CSc1ccc(C2CC(=O)Oc3c2c(=O)n(C)c2ccccc32)cc1` (stereo not drawn) gave LASV entry inh -27%[46.1 µM], StopGo reporter -18%, MARV entry inh -3%[46.1 µM], Cruzain inh noDet 8% and Cruzain inh Det -2.9%.
`O=C(c1c(F)cccc1F)N(Cc1ccccn1)C1CCCC1` gave SARS PLpro yeast 0%, LASV entry inh 29%, StopGo reporter 0%, RE007 growth inh -10%, MARV entry inh 9%, Cruzain inh noDet -22%, Cruzain inh Det 3.3% and NS1 inh -5%.
`CC(C)Oc1ccc(C(=O)/C=C2/C(=O)Nc3ccccc32)cc1` gave SARS PLpro yeast -11%, LASV entry inh inconclusive, StopGo reporter 26%, RE007 growth inh 21%, MARV entry inh inconclusive and NS1 inh -113%.
`CCCN1CCN(c2nnc(-n3cccc3C(=O)Nc3cc(Cl)ccc3C)s2)CC1` gave LASV entry inh 5%[46.1 µM], StopGo reporter -3%, Cruzain inh noDet -8% and Cruzain inh Det -0.4%.
`O=C(c1cc2cc3ccc(Cl)cc3nc2o1)N1CCC2(CC1)OCCO2` gave SARS PLpro yeast 6%, LASV entry inh 6%, StopGo reporter 32%[activator], RE007 growth inh -16%, MARV entry inh 4%, Cruzain inh noDet -8%, Cruzain inh Det -4.2% and NS1 inh -11%.
